# Mtb hypoxia rep: Mtb hypoxia fluorescent reporter inhibition; AID 1159583; M. tuberculosis hypoxia-regulated fluorescent reporter, fluorescence; 300,000 tested, 0.1% active; fluorescence inhibition, % (no concentration beside the values);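 active = 35 to 45% if threefold the growth effect, above 45% if 1.5-fold the growth effect; inactive = the rest, general growth blockers included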;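 also: wells of about 50 µL received 100 nL stock; 0% = vehicle wells and 100% = reference inhibitor wells; whole bacteria with a GFP reporter of the hypoxia response; strong numbers were not always called active; many hits fall short of the cut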
# PrP UTR inh: suppresses PrP 5' UTR mRNA reporter expression | cell-based PrP 5' UTR mRNA reporter, plate reader | inhibition, % (test concentration not listed) | 340,000 tested, 0.35% active | AID 488862;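 active = every replicate at 50% or more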;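 also: 0 = median of the neutral control wells; tested in H4 reporter cells; numbers are from one replicate; inactives centre near -14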
# BJeLR viability: BJeLR cell viability loss; BJeLR (HRASV12) viability, CellTiter-Glo ATP luminescence, 48 h; reference of the scale not given here; inhibition, % (no concentration beside the values); 300,000 tested, 0.17% active;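 active = replicate mean above 50%; inconclusive = above 50% but judged a plate artefact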;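 also: 50 nL library stock added to about 25 µL; numbers are from one replicate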
# Sa RN4220 lethal: kills Staphylococcus aureus RN4220; inhibition, % (test concentration not listed); S. aureus RN4220 growth, OD600, 16 h; 330,000 tested, 0.33% active; AID 1259311;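 active = z-score of -3 or lower and OD600 up to 0.18 on both plates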;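 also: plate controls were untreated cells for no effect and reference antibiotic for full effect; stock transfer was 100 nL into about 80 µL; one replicate is shown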
# Bead autofluor: flagged as autofluorescent in microsphere protease counterscreen; compound autofluorescence counterscreen, microsphere flow cytometry; active compounds read high; fluorescence intensity (test concentration not listed); 360,000 tested, 3.1% active; AID 624483;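 active = at least 3 SD above the mean of all compounds, about 16000 in these data; inconclusive = too few beads counted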;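 also: 100 nL of 1 mM stock went into each well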
# ugtP null kill: kills S. aureus RN4220 lacking UgtP; 330,000 tested, 0.54% active; growth inhibition, % (no concentration beside the values); S. aureus RN4220 ugtP deletion, OD600 growth, 16 h; some inactives read as strong as hits;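 active = z-score under -3 and OD600 up to 0.15 on both plates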;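 also: plate controls were untreated wells for no effect and antibiotic for full effect; wells of about 80 µL received 100 nL stock; the first replicate is given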
# Mtb hypoxia rep growth: also measured in Mtb hypoxia rep; calls as there; growth inhibition, %; measured here: M. tuberculosis growth (absorbance);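 0% = vehicle and 100% = reference antibiotic; read after six days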
# * hit, by the source's call; ? = inconclusive; . = no result given.
SMILES,Mtb hypoxia rep,Mtb hypoxia rep growth,PrP UTR inh,BJeLR viability,Sa RN4220 lethal,Bead autofluor,ugtP null kill
O=C(N=NC(=O)c1ccc2c(O)n(C3CCCCC3)c(O)c2c1)c1cccnc1,7,14,-31,0,2.0,9634,3
CCOC(=O)CSc1nc2ccccc2c(=O)n1CC1CCCC1,.,.,-3,3,4.7,2172,17
O=C(NN=C1CCCC1)c1ccc(O)cc1,1,14,1,-7,1.2,3515,7
CC(C)NS(=O)(=O)c1ccc(OCC(=O)NCc2ccc3c(c2)OCO3)c(Cl)c1,.,.,-8,.,-4.1,4828,-1
O=C(O)CSc1nc2ccccc2[nH]1,4,-2,-13,7,0.0,3848,-1
Cc1cc(NC(=O)CS(=O)(=O)c2ccc(Cl)cc2)no1,-18,2,-6,0,-0.3,5911,-4
COc1cccc(-n2c(=S)sc3c(=O)n(-c4ccccc4OC)c(=S)[nH]c32)c1,-5,6,-16,3,0.8,3583,3
O=C(ON=C1C(=O)N(c2ccccc2)c2ccccc21)C1CC1,6,3,.,.,2.2,.,1
COc1ccc(NC(=S)Nc2ccc3nccnc3c2)cc1,6,7,-40,-22,1.9,1989,1
COc1ccc(CC(=O)Nc2cccc3ccccc23)cc1OC,14,10,-24,-3,1.1,3834,2
NC(=O)C1CCN(CC(=O)Nc2cccc(C(=O)Nc3cccc(C(F)(F)F)c3)c2)CC1,8,5,2,7,4.3,2052,2
COc1ccc(C(=O)COc2nc(C)cc(C)c2C#N)cc1,1,11,-20,-2,6.8,5922,-10
O=S(=O)(/C=C/c1ccccc1)n1cnc2ccccc21,10,2,-2,-10,-14,3455,-1
COc1ccc(N2CCN(c3ncnc4scc(-c5ccc(C)cc5)c34)CC2)cc1,-9,-3,-1,-9,4.0,4679,5
O=C1N(CCCCN2C(=O)C3(OCCO3)c3ccccc32)c2ccccc2C12OCCO2,4,7,-18,9,3.4,3442,7

# An excerpt from above with just PrP UTR inh, Mtb hypoxia rep and ugtP null kill:
Molecule | PrP UTR inh | Mtb hypoxia rep | ugtP null kill
COc1ccc(CC(=O)Nc2cccc3ccccc23)cc1OC | -24 | 14 | 2
NC(=O)C1CCN(CC(=O)Nc2cccc(C(=O)Nc3cccc(C(F)(F)F)c3)c2)CC1 | 2 | 8 | 2
COc1ccc(C(=O)COc2nc(C)cc(C)c2C#N)cc1 | -20 | 1 | -10
O=S(=O)(/C=C/c1ccccc1)n1cnc2ccccc21 | -2 | 10 | -1

# Next compounds.
SMILES,Mtb hypoxia rep,Mtb hypoxia rep growth,PrP UTR inh,BJeLR viability,Sa RN4220 lethal,Bead autofluor,ugtP null kill
O=C(O)CCN1C(=O)C2C3c4ccccc4C(c4ccccc43)C2C1=O (stereo not drawn),11,13,-32,9,3.8,5013,-2
O=C(O)c1cc(NS(=O)(=O)c2ccc(N3CCCCC3)c([N+](=O)[O-])c2)cc(C(=O)O)c1,1,2,-10,0,0.5,2072,-3
CCCc1[nH]n(-c2nc3ccccc3s2)c(=O)c1C=NCCCOC,7,8,-15,-16,4.0,4718,2
COc1cc(NC(=O)c2ccc3c(SCC(=O)O)c4c(nc3c2)CCC4)cc(OC)c1OC,1,-5,5,1,3.9,4008,6
COc1ccc(N2CCN(C(=O)c3cn(C)c(=O)c4c3c3ccccc3n4C)CC2)cc1,1,4,-12,0,3.5,11065,13
Cn1c(C(C#N)=C(O)c2ccc(S(=O)(=O)N3CCCCC3)cc2)nc2ccccc21,-3,-6,.,.,1.2,.,3
NC(Cc1nc2ccccc2s1)=NO,-7,6,.,.,-1.3,.,-6
O=C(O)CCN1/C(=C/C=Nc2ccccc2)Oc2ccccc21,.,.,2,-6,1.3,4768,1
CCCN(CC1CCCO1)C(=O)CCc1nnc(-c2cc(C)on2)o1 (stereo not drawn),15,-5,-29,9,5.9,4156,11
COc1ccc(C2COC(=O)C2=N)c(NC(=O)c2ccc(Cl)cc2)c1 (stereo not drawn),12,0,-11,8,4.5,9630,-9
COc1cccc(CNC(=O)CCC2CCCN(C(=O)c3ccc(OC)o3)C2)c1 (stereo not drawn),-4,4,-31,5,5.0,5070,7
O=C(Nc1ccc(F)cc1)c1nsc(Cl)c1Cl,13,5,-105,-1,6.3,2448,8
COC(=O)c1ccc(NC(=O)CSc2nnnn2C2CCCCC2)cc1,6,8,-14,7,4.4,3087,8
COc1ccc(NC(=O)c2ccc(NC(=O)CSc3nc(N)cc(=O)[nH]3)cc2)cc1,6,-2,-24,.,4.4,8886,0
CCc1ccccc1OCC(=O)Nc1cc(S(=O)(=O)N(CC)CC)ccc1N1CCOCC1,13,9,-22,.,1.4,4661,-7
O=c1cc(CSc2nc3ccccc3c(=O)[nH]2)c2ccc(O)cc2o1,8,2,-21,4,7.9,2599,7
CC(C)c1ccc(NC(=O)NN2CCOCC2)cc1,6,-3,-58,6,4.6,3336,6
C=CCNc1nc(NCCN2CCOCC2)nc(N2CCOCC2)n1,.,.,-13,5,1.0,3125,2
O=C(Nc1ccccc1)C1CCCN1C(=O)NCc1ccccc1 (stereo not drawn),9,14,-18,-9,1.3,3212,12
CCc1ccc2[nH]c(=O)c(CN(Cc3ccc4c(c3)OCO4)Cc3nnnn3C3CCCC3)cc2c1,11,9,-26,-8,7.1,10521,-13
Cc1nn(CC(=O)Nc2ccncc2)c(C)c1[N+](=O)[O-],16,12,-3,-7,5.0,10235,9
CCN(C(=O)COC(=O)c1cncc(Br)c1)C1CCS(=O)(=O)C1 (stereo not drawn),13,2,-15,-1,0.5,4111,3
Cc1ccc(C)c(N2CCN(S(=O)(=O)c3cc4c(cc3C)NC(=O)CO4)CC2)c1,6,8,-18,3,-9.6,5329,-23
CC(NC(=O)C1CCC1)c1ccc(Br)cc1 (stereo not drawn),21,20,-13,-16,3.1,2181,4
CC(C)CN(C(=O)CN1CC=C(c2ccccc2)CC1)c1c(N)n(CC(C)C)c(=O)[nH]c1=O,1,5,-13,-13,7.1,2773,-2
Cc1cc(SCC(=O)Nc2c(C)n(C)n(-c3ccccc3)c2=O)nc2ccccc12,14,-15,-16,-4,2.4,5845,2
O=C(O)c1c(C(=O)O)c(-c2ccc(Br)cc2)n2c1CSC2,.,.,-19,-7,.,3800,.
CCOC(=O)C1(CCc2ccccc2)CCN(C(=O)CN2C(=O)CSC2=O)CC1,-2,-2,-6,3,1.3,3826,1
COc1cc(C=Nn2nnnc2N)ccc1OCC#N,3,-2,.,.,2.4,.,0
O=c1c2cn(Cc3ccc(F)cc3)c3ccc(F)cc3c-2nn1Cc1ccc(F)cc1,-4,-11,1,7,-0.6,3878,14
Cc1ccccc1Oc1nc2c(C)cccn2c(=O)c1/C=C(\C#N)C(=O)Nc1c(C)n(C)n(-c2ccccc2)c1=O,7,5,-22,-2,3.9,2620,4
CCCC(=O)Nc1ccc(Oc2ccc(NC(=O)CCC)cc2)cc1,5,10,-19,7,9.4,19816*,-1
Cc1ccsc1C(=O)Nc1n[nH]c(C(F)(F)F)n1,0,6,-8,1,1.2,4480,7
CCSc1nnc(NC(=O)C2CCCCC2C(=O)OCC(F)(F)C(F)F)s1 (stereo not drawn),-3,-10,-26,-19,-3.2,9595,-5
COc1cc(CN2CCCC(N3CCc4ccccc4C3)C2)c(Cl)cc1O (stereo not drawn),-4,8,-6,-2,3.1,4194,11
COc1ccccc1CNC(=O)C1CCN(S(=O)(=O)c2ccc(-n3cnnn3)cc2)CC1,3,-2,-23,4,2.0,3492,2
CC(=O)N1N=C(c2ccccc2O)CC1c1cccs1 (stereo not drawn),-9,4,5,-7,-0.3,3822,-9
O=C(CN(Cc1ccccc1)S(=O)(=O)c1ccc2c(c1)OCCO2)Nc1ccc2c(c1)OCCO2,0,2,-28,1,3.3,4248,-1
Cc1ccccc1OCC(=O)NCC(=O)N/N=C/c1ccc(Br)o1,.,.,-20,-7,.,2505,.
O=C(NN=Cc1coc2ccc(Cl)cc2c1=O)c1ccncc1,.,.,.,.,1.6,.,3
COC(=O)c1ccc(C=NOCC(=O)NC2CCCC(C)C2C)cc1 (stereo not drawn),-5,6,.,.,-0.1,.,14
CCOC(=O)C1CCN(C(=O)CNC(=O)c2nn(-c3ccc(OC)cc3)c(=O)c3ccccc23)CC1,4,-1,1,-11,1.7,3063,-1
CCCC(=O)Nc1ccc2c(c1)nc(CN1CCCCC1)n2C,3,6,-14,.,3.5,6029,4
Cc1cccn2c(=O)c3cc(C(=O)NC4CCCCCC4)sc3nc12,-3,3,-5,3,0.3,4441,0
COc1ccc(CCN2C(=O)CS/C2=N\NC(=O)c2cccs2)cc1OC,.,.,-27,1,.,4133,.

# Random excerpt: two records from the list.
SMILES,Mtb hypoxia rep,Mtb hypoxia rep growth,PrP UTR inh,BJeLR viability,Sa RN4220 lethal,Bead autofluor,ugtP null kill
CCc1ccccc1OCC(=O)Nc1cc(S(=O)(=O)N(CC)CC)ccc1N1CCOCC1,13,9,-22,.,1.4,4661,-7
O=C(Nc1ccc(F)cc1)c1nsc(Cl)c1Cl,13,5,-105,-1,6.3,2448,8

# Continued.
SMILES,Mtb hypoxia rep,Mtb hypoxia rep growth,PrP UTR inh,BJeLR viability,Sa RN4220 lethal,Bead autofluor,ugtP null kill
COc1cccc(-n2nnnc2SCC(=O)Nc2ccccc2OC)c1,1,3,-11,1,4.5,3373,4
O=C(CSc1nncs1)Nc1cccc2ccccc12,2,3,-10,.,2.7,.,5
COc1ccc(-n2c(=S)[nH]c3cc(C(=O)Nc4cccc(C)c4)ccc3c2=O)cc1,2,10,-2,-13,4.8,1969,-1
Cc1cccc(NC(=O)COc2coc(CN3CCN(Cc4ccccc4)CC3)cc2=O)c1,-3,-5,-4,12,1.0,5762,7
c1csc(-c2nn3c(C4COc5ccccc5O4)nnc3s2)c1 (stereo not drawn),24,24,-21,-14,3.2,12570,-7
O=C(Nc1ccc(OC(F)(F)F)cc1)NC1CCC(Oc2ccc(C(=O)O)cc2)CC1 (stereo not drawn),-3,4,-28,.,-0.4,2824,7
CCSc1nc2ccccc2n1C(=O)c1ccc(S(=O)(=O)N2CCCCCC2)cc1,7,9,0,-7,0.1,1997,13
COc1cccc(CNC(=O)C2CCN(c3nnc(N4CCCC4=O)s3)CC2)c1,4,-7,-8,-6,-0.9,5158,-1
CC(C)[C@H](NC(=O)c1ccccc1F)C(=O)NNC(=O)c1cccs1,10,8,-20,.,4.6,3972,11
C=CC(=O)NC1CC2CCC1(C)C2(C)C (stereo not drawn),1,13,-6,-13,5.0,4404,1
CCOC(=O)N=S(N)(=O)c1ccccc1 (stereo not drawn),6,15,-39,-17,3.9,20787*,1
CCN(C(=O)COC(=O)c1cccnc1SC)c1c(N)n(Cc2ccccc2)c(=O)[nH]c1=O,1,2,2,.,2.5,?,1
O=C(NC1CC1)C1CCN(S(=O)(=O)c2ccc(Cl)cc2)CC1,16,11,-7,-2,1.3,6140,3
CC1Sc2ccc(S(=O)(=O)CCC(=O)N3CCCCC3)cc2NC1=O (stereo not drawn),6,15,-9,0,3.8,5628,4
CCN(CC(=O)NCc1ccc(Cl)cc1)CC(=O)NC1(C#N)CCCC1,10,-2,-25,-1,5.6,2790,8
CCOC(=O)c1nc(Nc2ccccc2C)c2ccccc2n1,-6,-8,1,-5,1.8,3148,-5
Cn1c(NN)nc2sc3c(c2c1=O)CC(C)(C)OC3,6,1,-32,-1,7.1,11246,-1
CCCN1CCN(C(=O)C(NC(=O)c2ccco2)C(C)C)CC1 (stereo not drawn),12,1,-4,-9,3.3,4667,5
CCOCCOCCC(C(=O)OCC)P(=O)(c1ccccc1)c1ccccc1 (stereo not drawn),7,-1,-10,-5,0.9,8146,1
Cc1ccc(C)c(NC(=O)c2cc(-c3ccccc3)nn2-c2ccccc2)c1,6,-1,-9,12,1.9,2002,-4
CCN1C(=O)C(CC(=O)Nc2ccc(OC)cc2)N(CCc2ccc(OC)cc2)C1=S (stereo not drawn),6,3,-22,6,-5.2,3433,2
CC12C(=O)N(c3nccs3)C(=O)C1(C)C1CCC2O1 (stereo not drawn),-4,9,.,.,0.9,2839,1
O=C(CCl)NCC1CCCO1 (stereo not drawn),19,17,11,13,1.7,4513,0
O=C(OCC(=O)N(Cc1ccccc1)Cc1ccccc1)c1ccccc1NCCO,10,-5,-22,3,1.7,5927,9
CN(C)c1ccc(C=NO)cc1,9,1,.,.,5.6,.,-4
O=C(Nc1ccc(Cl)cc1)C1CCCCN1S(=O)(=O)c1ccccc1 (stereo not drawn),-3,5,-32,.,-5.3,?,-8
